Assay outcomes (PubChem)
TRPML1 ag – agonists of human TRPML1 channel; Q9GZU1; TRPML1-expressing cells, Ca2+ dye fluorescence, FDSS; host cell line not named in the record; reference of the full effect not given here; activation, % (no concentration beside the values); 0.12% of 410,000 active; AID 624414; in the data active = activation above about 50%; inconclusive = about 30% to 50%; inactive = below about 30%; note: 0% is about no effect; the text of the record puts the active cut at 80%
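TRPML1-DL cells, Tet-induced overnight (~16 h, 37 degrees C), loaded 45-90 min at room temperature with Ca8 no-wash calcium dye plus quencher. FDSS fluorescence: 10 s baseline, compound pin-transfer, 110 s agonist read, then EC80 54-4 (4uM final) and 110 s antagonist read.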
D2 agonist – human D2 receptor agonism in beta-arrestin assay; P14416; DiscoveRx PathHunter D2 beta-arrestin, luminescence, 90 min; 100% = 57 uM dopamine signal; activation, % (no concentration beside the values); 0.084% of 360,000 active; AID 624465; in the data active = activation above about 40%; inconclusive = about 15% to 40%; inactive = below about 15%; note: compound concentration not given in the record; the text of the record calls up to 30% inactive
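DiscoveRx PathHunter D2 beta-arrestin cells (2,100/well) attached overnight, then compound-stimulated 90 min at 37 C in HBSS/10 mM HEPES/0.1% Tween-20 buffer; beta-galactosidase complementation read by luminescence after 1 h at ambient temperature. Dopamine 57 uM final (EC100) as control.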
PINK1 modulator – changes PINK1 expression. PINK1 immunofluorescence, high-content cytometry, 24 h. AID 624263. Potency, µM (doses to about 76.6 µM), without a hit: top-dose activation (PINK1 increase), most hits filed as activators. 0.2% of 410,000 active; active = well fitted activation curve with a large enough effect; inconclusive = small, poorly fitted or top-dose-only effect; inactive = flat fitted curve, though single readings scatter; cell line not stated here;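 note: potency is the fitted concentration of half-maximal effect; % of control where 0% means no effect; nearly all actives have a fitted effect of over 65% in size; a mitochondrial uncoupler was the plate control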
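Decision-based qHTS: stable cells, 24 h exposure to five compound concentrations, CCCP as control. Fixed cells stained for PINK1 plus nuclear, mitochondrial and cell markers, cytometer read.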
D2 PAM – human D2 receptor positive allosteric modulation | AID 624464 | 0.23% of 360,000 active | P14416 | DiscoveRx D2 beta-arrestin cells, luminescence, 90 min; 100% = 57 uM dopamine signal | potentiation, % (no concentration beside the values); active = potentiation of 50% or more; inconclusive = 30% to 50%; inactive = 30% or less;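 note: compound concentration not given in the record; tested on top of an EC20 dose of dopamine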
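D2 cells co-treated with compound plus 50 nM dopamine (EC20) for 90 min at 37 deg C to detect potentiation. Beta-arrestin recruitment was read as enzyme-fragment luminescence after 1 h at ambient temperature. Full response was set by 57 uM dopamine.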
Six1-Eya2 blk – Six1/Eya2 interaction inhibition | AlphaScreen GST-Six1/His-Eya2 binding, biochemical; active compounds read low; control for the full effect not named in the record | activity change, % (no concentration beside the values) | 0.56% of 360,000 active; in the data active = activity change below about -65%; inconclusive = about -30% to -65%; inactive = above about -30%; note: % is set by controls: 0 for no effect and ±100 for the full control effect
Target sequence (O00167 whole entry, looked up): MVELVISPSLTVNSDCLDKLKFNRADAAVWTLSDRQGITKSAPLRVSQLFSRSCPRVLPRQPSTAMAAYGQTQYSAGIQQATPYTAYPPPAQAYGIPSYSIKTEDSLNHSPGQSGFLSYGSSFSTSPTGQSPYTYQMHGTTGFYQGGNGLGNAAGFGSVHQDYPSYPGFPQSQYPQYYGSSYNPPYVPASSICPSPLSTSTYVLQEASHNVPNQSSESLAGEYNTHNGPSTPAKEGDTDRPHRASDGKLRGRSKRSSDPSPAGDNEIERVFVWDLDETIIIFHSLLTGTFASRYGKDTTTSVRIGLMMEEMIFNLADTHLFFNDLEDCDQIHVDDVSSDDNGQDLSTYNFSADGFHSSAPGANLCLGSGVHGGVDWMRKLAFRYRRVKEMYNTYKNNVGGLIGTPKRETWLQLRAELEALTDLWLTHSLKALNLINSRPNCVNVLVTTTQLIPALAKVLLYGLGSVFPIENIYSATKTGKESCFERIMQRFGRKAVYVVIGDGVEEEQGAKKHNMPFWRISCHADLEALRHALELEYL
Target sequence (Q15475 whole entry, looked up): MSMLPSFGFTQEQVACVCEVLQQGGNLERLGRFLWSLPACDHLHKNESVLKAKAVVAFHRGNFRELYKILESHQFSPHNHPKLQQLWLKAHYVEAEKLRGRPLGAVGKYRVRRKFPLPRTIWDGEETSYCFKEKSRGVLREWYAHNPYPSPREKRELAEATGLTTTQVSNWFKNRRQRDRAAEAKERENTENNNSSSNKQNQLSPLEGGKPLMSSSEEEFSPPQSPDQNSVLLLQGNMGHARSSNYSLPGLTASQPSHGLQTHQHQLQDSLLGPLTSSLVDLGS
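AlphaScreen luminescence read after one hour at 37 °C in darkness. Pin-transferred compounds met GST-Six1 and His-Eya2 protein (5X stock 250 nM/500 nM) plus glutathione donor and Ni-chelate acceptor beads (5X, 50 ug/mL).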
TRPML1 inh – inhibitors of human TRPML1 channel; Q9GZU1; TRPML1-inducible cells, Ca2+ dye fluorescence, FDSS; active compounds read low; inhibition of EC80 agonist-evoked calcium signal; activity change, negative = inhibition, % (concentration not given with the values); 0.02% of 390,000 active; in the data active means activity change below about -50%; inconclusive means about -30% to -50%; inactive means above about -30%;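 note: stimulus is agonist 54-4 at its EC80 concentration; % is set by controls: 0 for no effect and ±100 for the full control effect; the text of the record puts the active cut at -80%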
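TRPML1-DL cells, Tet-induced overnight (~16 h, 37 °C) at 1,500 cells/well, were loaded with Ca8 no-wash dye plus quencher for 45-90 min at room temperature. Compounds were pinned during FDSS kinetic reading; agonist 54-4 at EC80 (4 uM final) then added.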
Active calls of the source: *; ? = inconclusive; nt = no result given; & = joins results of further samples; [ ] = remark or other dose.

Sample of the layout:
Each structure is followed by: TRPML1 inh, TRPML1 ag, Six1-Eya2 blk, D2 agonist, D2 PAM, PINK1 modulator
> CCOC(=O)c1c(/N=C/c2c(O)n(-c3ccc(F)cc3)c(=S)[nH]c2=O)sc2c1CCCC2
→ -11, -0.2, -1, -2.4, -16, 5.6%
> Cc1ccc2c(c1)C1CN(C)CCC1N2C(=O)c1ccco1 (stereo not given)
→ 8, 0.0, 2, -3.6, -29, nt

All compounds of this part (from the top)
Each structure is followed by: TRPML1 inh, TRPML1 ag, Six1-Eya2 blk, D2 agonist, D2 PAM, PINK1 modulator
> CCOC(=O)c1c(/N=C/c2c(O)n(-c3ccc(F)cc3)c(=S)[nH]c2=O)sc2c1CCCC2
→ -11, -0.2, -1, -2.4, -16, 5.6%
> Cc1ccc2c(c1)C1CN(C)CCC1N2C(=O)c1ccco1 (stereo not given)
→ 8, 0.0, 2, -3.6, -29, nt
> COc1ccc(-c2ccc3c(c2)CN(C(=O)CCc2ccccc2)Cc2cnnn2-3)cc1
→ nt, 0.3, -19, 1.7, 3, 2.4%
> CCC/C=N/O
→ -6, 0.0, 0, 6.6, -2, 3.4%
> COc1ccc(O)c2c(=O)c3c(OC)cc4c(c3oc12)C1C=COC1O4 (stereo not given)
→ 3, 0.2, -14, -0.6, -3, 0.2%
> O=C(c1cccn2c(=O)c3ccc(Cl)cc3nc12)N1CCC2(CC1)OCCO2
→ 23, 3.9, -11, 1.5, -1, -3.7%
> CCOC1=C(N2CC2)C(=O)C(OCC)=C(N2CC2)C1=O
→ -9, 0.6, 0, -1.5, 4, 1.5%
> Nc1cc(N2CCNCC2)c([N+](=O)[O-])cc1Cl
→ -10, -0.4, 5, 1.4, -13, -0.6%
> Oc1ccc(-[n+]2c(-c3ccccc3)cc(-c3ccccc3)cc2-c2ccccc2)cc1
→ -9, -1.1, -9, 15, 13, ?
> COC(=O)C1=C(c2cc3ccccc3s2)C[C@@H]2CC[C@H]1N2C(=O)NCc1ccccc1
→ 0, 1.0, -9, -2.7, -62, 2.0%
> CN1C(=O)CN=C(c2ccccc2Cl)c2cc(Br)ccc21
→ 22, 1.2, 2, -2.6, -4, -1.5%
> CCOC(=O)C1(c2ccccc2)CCN(CCC(=O)Nc2ccc(F)cc2)CC1
→ -10, -0.4, -1, 0.5, -7, 11%
> C=CCn1c(O)c(C(CC)=NCc2ccco2)c(=O)[nH]c1=O
→ 4, -0.6, 1, -1.0, -4, 0.4%
> CN1CCN(c2ccc(C(N)=O)cc2[N+](=O)[O-])CC1
→ -5, -0.3, 0, -2.2, -32, 1.2%
> O=C(COC(=O)Cc1ccccc1)Nc1cc(S(=O)(=O)N2CCCCC2)ccc1Cl
→ -3, 0.5, -2, 2.0, -3, -0.6%
> COc1cccc(C(c2nnnn2Cc2ccccc2)N2CCC(n3c(=O)[nH]c4ccccc43)CC2)c1OC (stereo not given)
→ -12, 1.4, -7, ?, ?, -0.9%
> O=C(Nc1ccc(F)cc1)N1CC2CC(C1)c1cccc(=O)n1C2 (stereo not given)
→ 0, -0.3, 6, -2.8, -16, 0.1%
> O=C(C(=C1N(Cc2ccc(Cl)nc2)CCN1Cc1ccc(Cl)nc1)[N+](=O)[O-])C(Cl)Cl
→ 42, 4.1, -8, 1.2, -5, 4.3%
> OC(CC#CCN1CCCCCC1)(c1ccccc1)C1CCCC1 (stereo not given)
→ 38, -0.1, -3, 1.4, -2, -0.6%
> CCN(c1ccc(C(O)(C(=O)OC)C(F)(F)F)cc1)S(=O)(=O)c1ccc(C)cc1 (stereo not given)
→ 73, 4.3, 0, -3.3, -10, -1.0%[38.3 µM]
> c1ccc2c(c1)CSc1ccccc1C2C1=NCCN1 (stereo not given)
→ 11, -0.3, 3, -4.7, -8, 3.0%
> O=c1[nH]c(=S)n(Cc2ccc(F)cc2)c(O)c1/C=N/N1CCCCCC1
→ 31, 2.0, 1, -2.2, -7, 3.8%
> COC(=O)C1=CO[C@@H](C)[C@@H]2CN3CC[C@@]4(C(=O)Nc5ccccc54)[C@@H]3C[C@H]12
→ -16, -0.2, 21, -0.1, 5, 0.7%
> CC(C(=O)c1c[nH]c2ccccc12)N1CCN(C(=O)c2ccco2)CC1 (stereo not given)
→ -8, -0.5, -19, -1.9, -4, 2.0%
> O=C(N[C@H]1CP(=O)(Oc2ccccc2)O[C@H](COCc2ccccc2)[C@H]1O)C(Cl)(Cl)Cl (stereo not given in full)
→ 5, -0.1, 1, 0.7, 3, -1.0%
> CCN(CC)CCN=Cc1c(O)n(Cc2ccco2)c(=O)[nH]c1=O
→ -3, 0.5, 8, -4.4, -7, -0.2%
> Cc1nc2ccccc2c(=O)n1-n1cnnc1
→ 6, 0.0, 2, 0.7, -2, ?
> Oc1ccccc1/C=N/NP(=S)(c1ccccc1)c1ccccc1
→ 5, 1.9, -15, 0.3, -7, ?
> COc1cccc(C(=O)C2CCCN(C3CCOCC3)C2)c1 (stereo not given)
→ -16, 0.4, 1, -4.3, -16, 0.5%
> O=C(Nc1ccccc1)c1cccn(Cc2ccccc2)c1=O
→ 15, 0.3, -2, -2.4, -5, 2.3%
> CNC(=S)N(C)CCc1cc2c(c(OC)c1C=C1C(=O)NC(=O)NC1=O)OCO2
→ 1, -0.1, 2, 5.0, -4, -0.4%
> Cn1nc(-c2ccc(OCC(=O)N3CCN(Cc4ccccc4)CC3)cc2)c2ccccc2c1=O
→ -15&2, 0.7&-0.9, 0&-2, 1.8&2.2, 1&0, -2.9%&6.4%
> CCN(CC)c1ccc(/C=C2/C(=O)NC(=O)N(Cc3ccco3)C2=O)cc1
→ -6, 0.0, -1, -2.2, 14, 1.3%
> CC(=NCCN1CCOCC1)c1c(O)n(-c2ccccc2C)c(=O)[nH]c1=O
→ 5, -0.4, -2, -1.9, -14, 0.7%
> CC1(C)CSC(=NCc2ccccc2)N1
→ 8, 91*, 10, -2.5, -8, 4.9%
> O=C(CNC(=O)c1ccc(Br)cc1)Nc1ccc(Br)cc1C(=O)c1ccccc1
→ 17, 0.5, -11, -4.1, -7, 3.9%
> Cc1ccc(CN2CCCN(Cc3ccccc3C)S2(=O)=O)cc1
→ 85, 2.8, 41, -3.5, -2, 5.3%
> O=C(NCC(c1cccnc1)N1CCN(c2ccccc2)CC1)Oc1ccccc1 (stereo not given)
→ -12, -0.5, -5, 1.2, -3, -0.8%[38.3 µM]
> CN1C2CCC1CC(OC(=O)c1ccc(Cl)cc1)C2 (stereo not given)
→ 22, 1.9, 15, -1.7, -12, -2.2%
> c1ccc(CNc2c3c(nc4ccccc24)CCC3)cc1
→ 48, -0.5, -7, -3.4, -12, ?
> COc1ccc(-c2nc(CN3C(=O)CN=C(c4ccccc4)c4ccccc43)c(C)o2)cc1
→ -12, -0.9, nt, nt, nt, -0.2%
> CCCCOP(=O)(OCCCC)/C(C#N)=C(/C)O
→ 7, -0.4, 6, 0.3, -1, 0.7%
> NC(=O)OCCSc1nnc(-c2cccc(C(N)=S)c2)o1
→ 32, 0.5, -19, -6.9, -23, -6.9%[38.3 µM]
> CC1OC(OC2C=C3CCC4C(CCC5(C)C(c6ccc(=O)oc6)CCC45O)C3(C)CC2)C(O)C(OC2OC(CO)C(O)C(O)C2O)C1O (stereo not given)
→ -21, 0.3, 3, -0.3, 0, -6.3%
> O=C(O)CSC(=S)N1CC2CC(C1)c1cccc(=O)n1C2 (stereo not given)
→ -16, 0.8, 11, -5.1, -2, 3.2%
> COC(=O)C1=C(c2cc3ccccc3s2)C[C@@H]2CC[C@H]1N2C(=O)NCCCOC(C)C
→ -3, 0.0, -6, -3.7, -13, 1.2%
> CCc1ccc(CN2CCN(Cc3ccc(SC)cc3)CC2)cc1
→ -2, -0.6, -17, -3.4, -16, 15%
> NP(=O)(Oc1ccccc1)c1ccccc1 (stereo not given)
→ 1, 0.4, 10, -3.4, -9, -5.4%
> CCCCn1c(O)c(C(CC)=NCc2ccc3c(c2)OCO3)c(=O)[nH]c1=O
→ 1, -0.1, -9, -0.3, nt, -0.6%
> CCC(=O)N1CCN(CCN=Cc2c(O)n(C)c(=O)n(C)c2=O)CC1
→ 9, 0.6, 2, 0.6, -7, 0.1%
> O=C1c2ccccc2C(=O)N1Cc1nc2ccccc2c(=O)n1-c1ccc(Br)cn1
→ -13, -0.5, -2, -3.2, -9, 1.2%
> CC12Nc3ccccc3C(=O)N1Cc1cnnn1-c1ccccc12 (stereo not given)
→ nt, -0.8, 1, nt, nt, 0.3%
> Cc1ccccc1[N+](=O)[O-]
→ 2, -0.1, 25, -4.2, 0, -0.1%
> CC(=NCc1cccnc1)c1c(O)n(-c2ccccc2)c(=O)[nH]c1=O
→ 4, -0.1, 0, -2.5, -11, 4.7%[38.3 µM]
> COc1ccc(OP(=O)(Nc2ccccc2)Nc2ccccc2)cc1
→ -3, 0.3, 1, -4.8, -5, 17%[38.3 µM]
> CC(C)(C)c1ccc(C(=O)C2CCCN(Cc3ccon3)C2)cc1 (stereo not given)
→ 5, -0.2, 0, -4.2, -6, 0.3%
> CCOC(=O)c1c(-n2c(C)cc(C=C3C(=O)NC(=S)NC3=O)c2C)sc2c1CCCC2
→ 10, 2.1, -16, -2.2, -5, -3.6%
> O=C(NC1CCCCC1)Oc1cc2oc(=O)sc2cc1Cl
→ -11, -0.2, 1, -3.6, -7, 0.1%
> CC(NCc1cccc(Cl)c1Cl)C(O)c1ccccc1 (stereo not given)
→ -14, 0.2, 19, -3.9, -19, 1.9%
> O=S(=O)(c1cc(Cl)cc(Cl)c1)N1Cc2cc(N3CCOCC3)ccc2-n2nncc2C1
→ nt, 0.0, 0, -4.3, -2, -1.0%
> Cc1ccccc1N1CCN(C2CCCN(C(=O)Cc3c(C)noc3C)C2)CC1 (stereo not given)
→ 17, 0.0, 4, -14, -9, -2.8%

Look-ups from the results shown:
Entry for CC(C)(C)c1ccc(C(=O)C2CCCN(Cc3ccon3)C2)cc1 (stereo not given) under D2 agonist: -4.2
Entry for Cc1ccccc1[N+](=O)[O-] under Six1-Eya2 blk: 25
Entry for NC(=O)OCCSc1nnc(-c2cccc(C(N)=S)c2)o1 under PINK1 modulator: -6.9%[38.3 µM]
Entry for O=S(=O)(c1cc(Cl)cc(Cl)c1)N1Cc2cc(N3CCOCC3)ccc2-n2nncc2C1 under D2 agonist: -4.3
Entry for O=C1c2ccccc2C(=O)N1Cc1nc2ccccc2c(=O)n1-c1ccc(Br)cn1 under Six1-Eya2 blk: -2
Entry for CC12Nc3ccccc3C(=O)N1Cc1cnnn1-c1ccccc12 (stereo not given) under TRPML1 ag: -0.8

Only part of the results is shown; rates above refer to the full screens.
